Source: PubChem
Vaccinia stage = Vaccinia orthopox stage-specific inhibition; activity change (mCherry), % (no concentration beside the values); 89,000 tested, 0.01% active; Vaccinia-infected cells, mCherry/Venus stage reporter fluorescence; stronger effect = lower value; some inactives read as strong as hits;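 active means mCherry past -33% and 40 or more points under the early reporter, replicates agreeing; inconclusive means past -33% without that gap or agreement; tested in A549 cells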;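 further: scaled between vehicle wells and reference inhibitor wells; 23 nL library stock went into each well; one replicate is shown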
Vaccinia stage Venus = also measured in Vaccinia stage; calls as there; activity change (Venus), %; measured here: Venus reporter, other viral stage;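 negative = less Venus signal; first of two replicates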
The depositor's hits bear a star; u = inconclusive; x = no result given.

SMILES	Vaccinia stage	Vaccinia stage Venus
COc1ccc2c3c(n(C)c2c1)[C@H](CO)NCC31CCN(C(=O)Nc2ccc(F)cc2F)CC1	u	x
CO[C@H](CN(C)S(=O)(=O)c1cccc(Cl)c1)[C@@H](C)CN([C@@H](C)CO)S(=O)(=O)c1ccc(Cl)cc1	u	x
O=C(c1ccccc1F)N1CC[C@@H]2[C@H](CO)Nc3ccc(-c4ccc(F)cc4)cc3[C@@H]21	-29	-6
CN(C)Cc1cn(CC[C@H]2CC[C@@H](N)[C@H](CO)O2)nn1	6	8
C[C@H]1CN([C@@H](C)CO)C(=O)c2cccc(NC(=O)Nc3ccccc3)c2O[C@@H]1CN(C)Cc1ccc(Oc2ccccc2)cc1	u	x
C[C@@H]1CN([C@@H](C)CO)C(=O)c2cccc(NC(=O)C3CC3)c2O[C@H]1CN(C)CC1CCCCC1	4	11
O=C(NCC[C@@H]1CC[C@@H](NC(=O)Nc2cc(F)ccc2F)[C@@H](CO)O1)Nc1ccc(F)cc1	-8	-11
C[C@H]1CN([C@@H](C)CO)C(=O)c2cc(NC(=O)C3CCCCC3)ccc2O[C@H]1CN(C)S(=O)(=O)c1ccc(Cl)cc1	-29	-36
C[C@H]1CN([C@@H](C)CO)C(=O)c2cc(NC(=O)c3ccncc3)ccc2O[C@H]1CN(C)Cc1ccc(Oc2ccccc2)cc1	-21	-14
COc1ccc(NC(=O)Nc2cccc3c2O[C@H](CN(C)S(=O)(=O)c2ccc(F)cc2)[C@@H](C)CN([C@H](C)CO)C3=O)cc1	11	10
CO[C@@H](CN(C)C(=O)c1cnccn1)[C@H](C)CN([C@@H](C)CO)S(=O)(=O)c1ccc(C)cc1	15	6
C[C@@H]1CN([C@@H](C)CO)C(=O)c2cc(NS(=O)(=O)c3ccc(Cl)cc3)ccc2O[C@@H]1CN(C)C(=O)Nc1ccc2c(c1)OCO2	-4	-5
C[C@H]1CN([C@@H](C)CO)C(=O)c2cc(N(C)C)ccc2O[C@@H]1CN(C)S(C)(=O)=O	-12	-9
C[C@@H]1CN([C@@H](C)CO)C(=O)c2cc(-c3cncnc3)cnc2O[C@@H]1CN(C)C(=O)c1cccc(F)c1	14	7
C[C@@H]1CN([C@H](C)CO)C(=O)c2cc(NS(=O)(=O)c3ccc(Cl)cc3)ccc2O[C@@H](C)CCCCO[C@@H]1CN(C)C(=O)CCC(F)(F)F	-13	-17
O=C(CN1CCOCC1)NCC[C@@H]1CC[C@H](NC(=O)c2ccccc2F)[C@@H](CO)O1	3	6
CN1C(=O)c2cc(NS(C)(=O)=O)ccc2OC[C@H]2O[C@@H](CC(=O)NCc3ccc(-c4ccccc4)cc3)CC[C@H]21	-18	-5
O=C(c1cnccn1)N1CC2(C1)[C@H](c1ccccc1)[C@@H](CO)N2C(=O)c1ccccc1	-6	1
COCC(=O)Nc1ccc2c(c1)OC[C@@H](C)N(C(=O)CC1CC1)C[C@@H](C)[C@H](OC)CN(C)C2=O	10	12
COc1ccccc1NC(=O)N[C@H]1CC[C@@H](CCNS(=O)(=O)c2ccc(F)cc2)O[C@@H]1CO	-12	-11
COc1cccc(NC(=O)C[C@H]2CC[C@H]3[C@@H](COc4ccc(NC(=O)C5CCOCC5)cc4C(=O)N3C)O2)c1	6	2
COc1ccc2c3c(n(C)c2c1)[C@H](CO)N(C(=O)Cc1ccccn1)CC31CCN(C)CC1	13	5
C[C@H]1CN([C@@H](C)CO)C(=O)Cc2cc(NC(=O)Cc3cn(C)c4ccccc34)ccc2O[C@@H]1CN(C)Cc1ccc(C(=O)O)cc1	10	10
O=C(C[C@@H]1C[C@H]2c3cc(NS(=O)(=O)c4ccccc4)ccc3O[C@H]2[C@@H](CO)O1)NC1CCCCC1	20	19
CO[C@@H]1CC[C@H]2CCN(C)C(=O)[C@@H](C)CN(C)C(=O)c3cccc(C#N)c3OC[C@@H]1O2	14	6

Next section.
SMILES	Vaccinia stage	Vaccinia stage Venus
C[C@@H]1CN([C@H](C)CO)C(=O)Cc2cc(NC(=O)c3ccncc3)ccc2O[C@@H]1CN(C)S(=O)(=O)c1cccs1	-1	-3
C[C@@H]1CN([C@@H](C)CO)C(=O)c2cc(NS(=O)(=O)c3ccc(F)cc3)ccc2O[C@@H]1CN(C)Cc1ccc(C(=O)Nc2ccccc2N)cc1	1	-6
O=C(Cc1ccccc1)N1C[C@@H]2[C@H](c3ccccc31)[C@@H](CO)N2C(=O)C1CCCCC1	18	13
CO[C@@H]1CN(C)C(=O)c2ccc(NC(=O)C3CC3)cc2OC[C@@H](C)N(CC2CC2)C[C@@H]1C	1	3
COc1ccc(S(=O)(=O)N(C)C[C@H]2Oc3ccc(NS(C)(=O)=O)cc3CC(=O)N([C@H](C)CO)C[C@@H]2C)cc1	14	11
Cc1cccc(CN(C)C[C@H]2OCc3cnnn3CCCC(=O)N([C@H](C)CO)C[C@@H]2C)c1	9	-2
CC(=O)N1[C@H](C(=O)N[C@H](C)c2ccccc2)[C@@H](CO)[C@@H]2Cn3c(cccc3=O)[C@@H]21	6	9
CO[C@@H]1CN(C)C(=O)c2cc(NC(=O)Nc3ccc(C(F)(F)F)cc3)ccc2OC[C@@H](C)NC[C@@H]1C	u	x
C[C@@H]1CN([C@H](C)CO)C(=O)c2cc(NC(=O)Nc3ccc4c(c3)OCO4)ccc2O[C@H]1CN(C)S(=O)(=O)c1cn(C)cn1	19	11
COCC#Cc1cnc2c(c1)C(=O)N([C@H](C)CO)C[C@H](C)[C@H](CN(C)C(=O)c1cccnc1)O2	18	13
CNC(=O)C[C@@H]1CC[C@H]2[C@@H](COC[C@H](O)CN2C(=O)c2ccccn2)O1	8	7
C/C=C/c1ccc2c(c1)O[C@@H](CN(C)C(=O)NC1CCCCC1)[C@H](C)CN([C@H](C)CO)S2(=O)=O	-5	-5
COc1cccc(NC(=O)C[C@@H]2CC[C@@H]3[C@H](COc4ccc(NC(C)=O)cc4C(=O)N3C)O2)c1	9	11
C[C@H]1CN([C@@H](C)CO)C(=O)c2cccc(NC(=O)c3ccc(-c4nccs4)cc3)c2O[C@@H]1CN(C)Cc1ccc(C(=O)Nc2ccccc2N)cc1	-12	7
CN1C[C@H]2[C@@H](c3ccccc31)[C@H](CO)N2C(=O)Nc1cccc(F)c1	3	4
O=C(C1CC1)N1CC2(C1)[C@H](c1ccccc1)[C@H](CO)N2S(=O)(=O)c1ccccc1	8	13
CN1c2ccc(-c3cccc(C#N)c3)cc2[C@@H]2[C@@H](CCN2C(=O)C2CC2)[C@H]1CO	2	7
Cc1ccc(S(=O)(=O)N(C)C[C@@H]2OCCCC[C@H](C)Oc3ccc(NC(=O)c4ccncc4)cc3C(=O)N([C@H](C)CO)C[C@@H]2C)cc1	-20	-22
O=C(NCCN1CCCC1)[C@@H]1[C@@H](CO)[C@@H]2Cn3c(cccc3=O)[C@@H]2N1C(=O)c1ccccc1	11	10
CC(C)(O)C#Cc1cccc(-c2nc(C(=O)N3CCN(Cc4ccccc4)CC3)cc3c2[C@@H](CCO)N(S(=O)C(C)(C)C)C3)c1 (stereo not given in full)	3	13
C[C@H]1CN([C@@H](C)CO)C(=O)c2cc(NS(=O)(=O)c3cn(C)cn3)ccc2O[C@H]1CN(C)Cc1ccc(-c2ccccc2)cc1	-9	-4
C[C@@H]1CN([C@@H](C)CO)C(=O)c2cc(Br)cnc2O[C@H]1CN(C)C(=O)c1ccc(F)cc1	16	11
Cc1noc(C)c1NC(=O)N(C)C[C@H]1Oc2ccc(NC(=O)CCC(F)(F)F)cc2CC(=O)N([C@H](C)CO)C[C@H]1C	-2	1
Cc1ccc(S(=O)(=O)NC[C@H]2CC[C@@H]3[C@@H](CN3Cc3cc(-c4ccccc4)on3)O2)cc1	-13	-9
C[C@@H]1CN([C@@H](C)CO)C(=O)Cc2cc(NC(=O)Cn3cnnn3)ccc2O[C@H]1CN(C)CC1CC1	11	16

Next structures:
SMILES	Vaccinia stage	Vaccinia stage Venus
C[C@@H]1CN([C@H](C)CO)C(=O)c2cc(NS(=O)(=O)c3cccs3)ccc2O[C@@H]1CN(C)CC1CCCCC1	5	5
C[C@@H]1CCCCO[C@@H](CN(C)C(=O)CCCN(C)C)[C@H](C)CN([C@H](C)CO)C(=O)c2cc(N(C)C)ccc2O1	8	4
C[C@@H]1CN([C@@H](C)CO)C(=O)c2cc(-c3ccc(C#N)cc3)cnc2O[C@H]1CN(C)Cc1cncnc1	23	10
CCCC(=O)Nc1ccc2c(c1)C(=O)N(C)C[C@H](OC)[C@@H](C)CN(C(=O)c1cnccn1)[C@H](C)CO2	-2	2
CCCNC(=O)N[C@@H]1CC[C@@H](CC(=O)NC2CCC2)O[C@@H]1CO	-8	-9
O=C(C[C@H]1CC[C@@H]2[C@H](COC[C@@H](O)CN2Cc2ccc(Cl)cc2)O1)NCCc1ccccc1	-24	-8
CC=Cc1ccc2n(c1=O)C[C@@H]1[C@@H](CO)[C@H](C(=O)NC3CCC3)N(S(C)(=O)=O)[C@H]21 (mixture of isomers)	-10	-9
Cc1ccc(-c2ccc([C@@H]3[C@H](CO)N4CCCCN(C(=O)c5ccc(F)cc5)C[C@@H]34)cc2)cc1	u	x
CNC[C@H]1Oc2ccc(NC(=O)c3ccncc3)cc2CC(=O)N([C@H](C)CO)C[C@H]1C	19	4
COc1ccccc1NC(=O)N1C[C@H](O)COC[C@H]2O[C@@H](CC(=O)NCCc3ccccc3)CC[C@@H]21	-3	-16
COc1ccccc1CNC(=O)C[C@H]1C[C@@H]2c3cc(NC(=O)Nc4ccccc4F)ccc3O[C@@H]2[C@H](CO)O1	5	2
C[C@@H]1CN([C@@H](C)CO)C(=O)c2cc(NC(=O)CCN3CCOCC3)ccc2O[C@@H]1CN(C)CC1CCCCC1	3	4
C[C@@H]1CN([C@@H](C)CO)C(=O)Cc2cc(NS(=O)(=O)c3cccs3)ccc2O[C@H]1CN(C)Cc1ccc(-c2ccccc2)cc1	-30	-10
C[C@@H]1CN([C@@H](C)CO)C(=O)c2cc(C#CC3CCCC3)cnc2O[C@@H]1CN(C)Cc1ccncc1	-6	-14
C[C@@H]1CN([C@H](C)CO)C(=O)c2cccc(NS(=O)(=O)c3cn(C)cn3)c2O[C@H]1CN(C)S(=O)(=O)c1ccccc1	14	10
O=C(C[C@@H]1C[C@H]2c3cc(NS(=O)(=O)c4ccc(F)cc4)ccc3O[C@H]2[C@H](CO)O1)NCc1cccnc1	-4	4
CN1C(=O)c2cc(NS(=O)(=O)c3ccccc3F)ccc2OC[C@@H]2O[C@@H](CC(=O)NC3Cc4ccccc4C3)CC[C@@H]21	12	8
CC(C)NC(=O)N(C)C[C@@H]1Oc2ccc(NC(=O)Nc3ccc(C(F)(F)F)cc3)cc2CC(=O)N([C@H](C)CO)C[C@H]1C	9	10
CO[C@@H]1CN(C)C(=O)c2ccc(NC(=O)C3CC3)cc2OC[C@H](C)N(C(=O)CN2CCOCC2)C[C@@H]1C	0	4
C[C@@H]1CN([C@H](C)CO)C(=O)c2cc(NC(=O)NC3CCCCC3)ccc2O[C@@H]1CN(C)Cc1ccc(C(F)(F)F)cc1	-22	-19
COCC(=O)Nc1ccc2c(c1)[C@H]1C[C@@H](CC(=O)N3CCc4ccccc4C3)O[C@H](CO)[C@H]1O2	-9	-9
CO[C@@H]1CN(C)C(=O)c2ccc(NC(=O)C3CCOCC3)cc2OC[C@@H](C)N(CC2CCOCC2)C[C@H]1C	-2	0
CC(C)CN(C[C@@H]1[C@@H](c2ccccc2)[C@H](CO)N1C(=O)C1CCC1)C(=O)C1CC1	4	6
O=C(c1ccncc1)N1C[C@H]2[C@@H](c3ccccc31)[C@H](CO)N2C(=O)c1ccncc1	12	2
COCC(=O)Nc1ccc2c(c1)[C@H]1C[C@H](CC(=O)NC3CCCC3)O[C@H](CO)[C@H]1O2	4	4
O=C(NCC[C@H]1CC[C@H](NC(=O)Nc2cc(F)ccc2F)[C@H](CO)O1)Nc1ccc(F)cc1	-15	-16

Some of these compounds in order of SMILES length, falling.
SMILES	Vaccinia stage	Vaccinia stage Venus
C[C@@H]1CN([C@@H](C)CO)C(=O)Cc2cc(NS(=O)(=O)c3cccs3)ccc2O[C@H]1CN(C)Cc1ccc(-c2ccccc2)cc1	-30	-10
C[C@@H]1CN([C@H](C)CO)C(=O)c2cccc(NS(=O)(=O)c3cn(C)cn3)c2O[C@H]1CN(C)S(=O)(=O)c1ccccc1	14	10
C[C@@H]1CN([C@H](C)CO)C(=O)c2cc(NC(=O)NC3CCCCC3)ccc2O[C@@H]1CN(C)Cc1ccc(C(F)(F)F)cc1	-22	-19
C[C@@H]1CCCCO[C@@H](CN(C)C(=O)CCCN(C)C)[C@H](C)CN([C@H](C)CO)C(=O)c2cc(N(C)C)ccc2O1	8	4
O=C(C[C@@H]1C[C@H]2c3cc(NS(=O)(=O)c4ccc(F)cc4)ccc3O[C@H]2[C@H](CO)O1)NCc1cccnc1	-4	4
CCCC(=O)Nc1ccc2c(c1)C(=O)N(C)C[C@H](OC)[C@@H](C)CN(C(=O)c1cnccn1)[C@H](C)CO2	-2	2
CC=Cc1ccc2n(c1=O)C[C@@H]1[C@@H](CO)[C@H](C(=O)NC3CCC3)N(S(C)(=O)=O)[C@H]21 (mixture of isomers)	-10	-9
Cc1ccc(-c2ccc([C@@H]3[C@H](CO)N4CCCCN(C(=O)c5ccc(F)cc5)C[C@@H]34)cc2)cc1	u	x
COCC(=O)Nc1ccc2c(c1)[C@H]1C[C@H](CC(=O)NC3CCCC3)O[C@H](CO)[C@H]1O2	4	4
CC(C)CN(C[C@@H]1[C@@H](c2ccccc2)[C@H](CO)N1C(=O)C1CCC1)C(=O)C1CC1	4	6
CCCNC(=O)N[C@@H]1CC[C@@H](CC(=O)NC2CCC2)O[C@@H]1CO	-8	-9

An excerpt; rates above refer to the full screens.
